Lassa entry inh: qHTS for Inhibitors of binding or entry into cells for Lassa Virus; Lassa virus pseudotype entry inhibition, cell reporter; control for the full effect not named in the record; Potency, µM (highest dose often 37.9 µM), inactives show at the top dose activity change, negative = inhibition, actives largely listed as inhibitors; 300,000 tested, 1.2% active; AID 540256, 2011; active means well fitted inhibition curve with a large enough effect; inconclusive means small, poorly fitted or top-dose-only effect, or effect the other way; inactive means flat fitted curve, though single readings scatter; tested in HEK293 cells; note: % is set by controls: 0 for no effect and ±100 for the full control effect; nearly all actives have a fitted effect of over 50% in size; luciferase read-out
Cruzain inh noDet: qHTS Assay for Promiscuous and Specific Inhibitors of Cruzain (without detergent). Cruzipain (Trypanosoma cruzi), P25779. purified cruzain, Z-FR-AMC fluorescence, no detergent. Potency, µM, for inactives: max response, negative = inhibition, actives largely listed as inhibitors. 200,000 tested, 2.3% active. AID 1476, 2009; active = well fitted curve in the direction sought with a large enough effect; inconclusive = small, poorly fitted or top-dose-only effect, or another doubt; inactive = no such curve, though single readings can be large; an effect the other way counts as inactive or inconclusive;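 note: plate controls were enzyme without inhibitor for no effect and buffer without enzyme for full effect; nearly all actives have a fitted effect of over 40% in size; top concentration of the series not given in the record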
Target sequence (P25779 123-467 limits assumed): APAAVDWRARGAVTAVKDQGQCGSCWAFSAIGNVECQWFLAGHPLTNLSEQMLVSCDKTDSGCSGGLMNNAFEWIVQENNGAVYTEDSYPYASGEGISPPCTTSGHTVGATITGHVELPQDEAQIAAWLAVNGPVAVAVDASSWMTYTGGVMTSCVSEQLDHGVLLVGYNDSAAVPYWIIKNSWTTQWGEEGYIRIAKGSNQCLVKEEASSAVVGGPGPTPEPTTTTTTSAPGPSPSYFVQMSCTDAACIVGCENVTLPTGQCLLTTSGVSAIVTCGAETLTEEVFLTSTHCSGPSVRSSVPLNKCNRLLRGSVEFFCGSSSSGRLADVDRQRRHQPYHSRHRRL
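Purified cruzain at 1.5 nM, pre-incubated 15 min with compound at room temperature in 100 mM sodium acetate pH 5.5, 5 mM DTT, 0.00005% Triton X-100. Reaction started with 2 uM Z-FR-AMC; AMC fluorescence increase over 60 s gives rate.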
RE007 growth inh: qHTS Assay for Inhibitors of the HIV-1 protein Vpr; S. pombe RE007 Vpr strain, BacTiter-Glo ATP luminescence, 24 h; control for the full effect not named in the record; Potency, µM (highest dose often 92.2 µM), without a hit: at the highest dose activity change, negative = less growth; 360,000 tested, 0.21% active; AID 651644, 2012; active = well fitted falling curve with a large enough effect; inconclusive = small, poorly fitted or top-dose-only effect; inactive = no such curve, though single readings can be large or run the other way;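 note: % is set by controls: 0 for no effect and ±100 for the full control effect; nearly all actives have a fitted effect of over 50% in size; the assay follows cell death caused by Vpr and the record does not say whether a fall means rescue or toxicity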
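Fission yeast RE007 carrying one integrated HIV-1 vpr copy, seeded at OD 0.01 in PMG+AL medium with 23 nL pinned compound. Grown 24 h at 30 degrees; viability read by BacTiter-Glo luminescence after 5 min.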
MARV entry inh: qHTS for inhibitors of binding or entry into cells for Marburg Virus; Marburg virus pseudotyped entry inhibition, cell reporter; control for the full effect not named in the record; about a third of the inactives were read at about 46 µM; Potency, µM (highest dose often 37.8 µM), for inactives: at the highest dose activity change, negative = inhibition, actives largely listed as inhibitors; 300,000 tested, 1.8% active; AID 540276, 2011; active = well fitted inhibition curve with a large enough effect; inconclusive = small, poorly fitted or top-dose-only effect, or effect the other way; inactive = flat fitted curve, though single readings scatter; tested in HEK293 cells; about a fifth of its hits are not listed in these tables; note: % is set by controls: 0 for no effect and ±100 for the full control effect; luciferase read-out
SARS PLP yeast: qHTS of Yeast-based Assay for SARS-CoV PLP. S. cerevisiae expressing SARS-CoV PLpro, growth rescue; control for the full effect not named in the record. Potency, µM (highest dose often 32.9 µM), without a hit: at the highest dose activity, positive = growth rescue. 330,000 tested, 0.19% active; note: 0% is about no effect; nearly all actives have a fitted effect of over 55% in size; growth read by luminescence after 48 h
Cruzain inh Det: qHTS Assay for Promiscuous and Specific Inhibitors of Cruzain (with detergent); Cruzipain (Trypanosoma cruzi), P25779; purified cruzain, Z-FR-AMC fluorescence, 0.01% Triton; Potency, µM, inactives show max response, negative = inhibition, most hits filed as inhibitors; 200,000 tested, 0.43% active; AID 1478, 2009; active = well fitted curve in the direction sought with a large enough effect; inconclusive = small, poorly fitted or top-dose-only effect, or another doubt; inactive = no such curve, though single readings can be large; an effect the other way counts as inactive or inconclusive;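 note: plate controls were neutral wells for no effect and buffer without enzyme for full effect; nearly all actives have a fitted effect of over 40% in size; top concentration of the series not given in the record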
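Cysteine protease activity tested under reducing, mildly acidic conditions (100 mM sodium acetate pH 5.5, 5 mM DTT) plus 0.01% Triton X-100. Cruzain 1.5 nM; substrate Z-FR-AMC 2 uM; 15 min compound preincubation at room temperature.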
NS1 inh: qHTS Assay for Inhibitors of Influenza NS1 Protein Function; S. cerevisiae slowed by influenza A NS1, growth recovery by OD600; Potency, µM (highest dose often 46.1 µM), inactives show at the highest dose activity, positive = more growth; 270,000 tested, 0.4% active; AID 2326, 2010; note: actives are rising curves; nearly all actives have a fitted effect of over 50% in size
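In this qHTS, NS1 from influenza A is expressed in budding yeast, where it slows growth. Cells are switched from glucose to 2% galactose medium (pH 6.0, -URA), treated with compound, and growth recovery is read at OD600.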
2A StopGo: High Throughput Screening for Foot and Mouth Disease Virus Antivirals. human cells with a luciferase reporter of 2A StopGo recoding; control for the full effect not named in the record. Potency, µM (top dose mostly 57.9 µM), inactives show at the highest dose signal change, negative = less light. 410,000 tested, 1.2% active; active = well fitted falling curve with a large enough effect; inconclusive = small, poorly fitted or top-dose-only effect; inactive = no such curve, though single readings can be large or run the other way; tested in HEK293T cells; note: % is set by controls: 0 for no effect and ±100 for the full control effect; nearly all actives have a fitted effect of over 45% in size; luciferase light after 4 h
Active calls of the source: *; ? = inconclusive; / = not tested or not shown; & = joins results of further samples; [ ] = another dose, or the depositor's remark. Unless noted, calls come from the whole dose curve; as a rule, active means well fitted rising curve with a large enough effect; inconclusive means small, poorly fitted or top-dose-only effect; inactive means no such curve, though single readings can be large or run the other way. Potency is the fitted concentration of half-maximal effect.

structure,Lassa entry inh,Cruzain inh noDet,RE007 growth inh,MARV entry inh,SARS PLP yeast,Cruzain inh Det,NS1 inh,2A StopGo
CN1CCC(CNC(=O)Nc2csc3ccccc23)CC1,3%[46.1 µM],/,-17%,-18%[46.1 µM],-2%,/,5%,-8%
O=C(C#Cc1ccccc1)NCc1ccccc1F,/,/,5%,/,-4%,/,-18%,61%[activator]
CCOC(=O)c1ccc(NC(=O)CSc2nccn2-c2ccc(OCC)cc2)cc1,-6%[46.1 µM],17%,/,2%[46.1 µM],/,-2.7%,/,?
CN(CCOC(=O)c1ccc2c(c1)OCCO2)C(C)(C)C,8%,-5%,-11%,-12%,7%,-1.8%,-3%,-5%
CC(NC(=O)c1nn(C)c2c1CSc1ccccc1-2)c1ccccc1 (stereo not given),0%[46.1 µM],2%,/,-5%[46.1 µM],/,-2.8%,/,23%
CCCc1nnc(NC(=O)CCC(=O)N2CCCCCC2)s1,-4%,2%,-3%,-5%[46.1 µM],10%,5.0%,2%,-6%
CC(C)CN(c1ccccc1)S(=O)(=O)c1nnc(NC(=O)c2ccco2)s1,15%[46.1 µM],-4%,11%,/,?,-0.4%,-2%,9%&-5%
NC(=O)C1(Nc2ccc(Br)cc2)CCCC1,0%[46.1 µM],/,0%,4%[46.1 µM],/,/,/,-15%
COc1ccc(CCNC(=O)C(=O)NCC2OCCN2S(=O)(=O)c2ccc(Br)cc2)cc1OC (stereo not given),?,16%,-11%,?,2%,-1.2%,-6%,-17%
CN=C(Nc1cc(C)nn1-c1ccccc1)c1ccc(F)cc1,19%,-5%,3%,1%,0%,4.5%,1%,/
O=C(Cn1cc2c(n1)CCCCC2)NC1CCCCCC1,6%,7%,3%,20%,-10%,1.2%,-25%,61%[activator]
FC(F)(F)c1ccc(N2CCOCC2)c(NC2=NCCCCC2)c1,4%,-6%,6%,3%,3%,6.4%,-7%,4%
O=S(=O)(c1ccc(Cl)cc1)c1nc(-c2cccc(Br)c2)oc1NCc1ccccc1,?,13µM*,/,/,/,-11%,/,11%
Cc1cc(C(=O)OCC(=O)NC(=O)c2cccn2C)c2ccccc2n1,/,/,35%,/,-1%,/,7%,-1%
COc1ccc(N2CCN(C(c3nnnn3CCc3ccccc3)C(C)C)CC2)cc1 (stereo not given),2%,1%,0%,?,2%,-9.4%,-30%,-24%
CC(Oc1cccc(Cl)c1)C(=O)NCCCCc1ccccc1 (stereo not given),-16%,18%,0%,43%,2%,-8.2%,-6%,-20%
CCCCCCNC(=O)c1c[nH]c2ccc(S(=O)(=O)N(C)c3ccc(C(C)C)cc3)cc2c1=O,-7%[46.1 µM],7%,/,/,/,1.7%,/,-26%
O=C(C1CCCN(Cc2ccccc2F)C1)N1CCc2ccccc2C1 (stereo not given),2%,/,4%,1%[14.2 µM],0%,/,-2%,-16%
C/C(N)=C(/C#N)C(=O)CSc1nc(-c2ccccc2)c(-c2ccccc2)o1,?,/,2%,-7%[46.1 µM],-9%,/,-16%,-21%
CC1(C)CC(=O)C(CCCN2C(=O)c3ccccc3C2=O)C(=O)C1,7%,-11%,-6%,-2%&-2%,4%,0.5%,5%,-16%
NS(=O)(=O)c1ccc(N=Cc2c(O)n(-c3nccs3)c(=O)c3ccccc23)cc1,-5%,/,2%,-27%,1%,/,-1%,-16%
COc1ccc(OC)c(C(C)NC(=S)Nc2ccc(S(=O)(=O)Nc3ncccn3)cc2)c1 (stereo not given),0%,/,4%,4%,-8%,/,6%,21%
COc1ccc(OC)c(NC(=O)CSc2nc(=O)n(CCN3CCOCC3)c3c2CCCC3)c1,7%,/,3%,-10%[46.1 µM],-1%,/,/,7%
CC(=O)c1ccc(OC(C)C)c(CN2CCCCC2)c1,0%,-3%,-16%,?,-9%,-0.4%,-4%,/
O=C(Nc1ccccc1N1CCCC1)c1cccc(Cl)c1Cl,-9%[46.1 µM],/,-11%,-14%[46.1 µM],0%,/,1%,-11%
O=C(COC(=O)C1CCN(S(=O)(=O)c2cccs2)CC1)NCc1ccccc1,-4%,/,14%,?,-1%,/,/,14%
Cn1c(=O)c2c(nc(N3CCOCC3)n2Cc2ccccc2)n(C)c1=O,0%[46.1 µM],-17%,/,-2%[46.1 µM],/,-3.4%,/,-15%
Cc1ccc(C(=O)c2cc([N+](=O)[O-])ccc2N2CCCCC2)cc1,?,-2%,-6%,?,-5%,-5.8%,4%,-23%
COc1ccc(NC(=O)c2ccc3c(c2)NC(=O)CO3)cc1OC,16%,/,9%,-12%,-2%,/,/,-1%
CN1CCN(C(=O)C(Cc2ccccc2)NS(=O)(=O)c2ccc3c(c2)CCC(=O)N3)CC1 (stereo not given),/,-12%,13%,3%,-8%,-3.1%,0%,-5%
COc1ccc(-c2cc(C(=O)N3CCN(C(c4ccccc4)c4ccccc4)CC3)no2)cc1OC,-2%,-3%,-3%,?,-7%,-2.8%,18%,-24%
COCC(=O)Nc1ccc(Br)cc1,12%,3%,-19%,38%,-9%,2.0%,0%,-12%
CC(=O)Nc1ccc(S(=O)(=O)NCc2cccnc2)cc1,?,0%,-5%,-3%,-4%,-0.3%,3%,-13%
Cc1ccc(C)c(OCC(=O)Nc2cc(NC(=O)COc3cc(C)ccc3C)cc(C(=O)O)c2)c1,8%,/,-13%,5%,1%,/,28%,41%[activator]
O=C1C2C3c4ccccc4C(c4ccccc43)C2C(=O)N1c1ccncc1 (stereo not given),/,/,11%,/,1%,/,1%,?
Cc1ccc(C(=O)OC2OC(=O)C(Cl)=C2N2CCOCC2)cc1 (stereo not given),?,5%,10%,2%,-3%,-6.8%,-3%,-7%
COc1ccc(NC(=O)CCS(=O)(=O)c2ccc3nc(C)sc3c2)cc1Cl,16%[46.1 µM],0%,/,/,/,-2.9%,/,-23%
COc1ccc(NC(=O)CSc2nc(-c3ccc(OC)c(OC)c3)[nH]c2-c2ccc(C)cc2)cc1,7%[46.1 µM],30%,/,-23%[46.1 µM],/,-3.5%,/,-25%
O=C(CSc1nc2ccccc2s1)N/N=C/c1ccccc1C(=O)O,/,/,-2%,/,0%,/,1%,-14%
CCCCCCCOC1(c2ccccc2)OC(=O)c2ccccc21 (stereo not given),-2%,-3%,-7%,-16%,-18%,-1.7%,13%,-7%
CC(=O)Nc1cccc(NC(=O)c2c(-c3c(Cl)cccc3Cl)noc2C)c1,-12%,-20%,2%,-9%,0%,-19%,8%,/
O=C(O)CC(c1cccc2ccccc12)N1Cc2ccccc2C1=O (stereo not given),9%,/,6%,2%[46.1 µM],0%,/,?,1%
Cn1cnnc1SCC(=O)N1CCc2ccccc21,-3%,-6%,7%,10%,0%,0.7%,-1%,17%
Cc1ccc(CNC(=O)c2ccc(C#CC(C)(C)O)s2)cc1,15%,3%,-9%,9%,-22%,-3.0%,-2%,26%
CC(=O)c1cccc(NC(=S)N2CCN(S(C)(=O)=O)CC2)c1,9%,/,0%,10%,2%,/,15%,-3%
COc1cc(C)nc(N2CCC(C(N)=O)CC2)n1,-1%,-1%,4%,23%,8%,1.0%,0%,/
O=C(Nn1cnc2ccccc2c1=O)c1ccccc1F,/,/,1%,/,-1%,/,-8%,14%
COc1cc(NC(=O)c2nc3ccccc3n(C)c2=O)cc(OC)c1OC,1%[46.1 µM],0%,/,?,/,-8.4%,/,-16%
Cc1cc(C)c(Nc2ncnc3c2cnn3C)c(C)c1,13%[46.1 µM],-9%,/,/,/,-0.9%,/,-6%
Cc1cc(C(=O)CSc2nc(N)cc(=O)[nH]2)c(C)n1CCc1ccc(Cl)cc1,-23%,13µM*,11%,?,-6%,-0.4%,1%,22µM*

More entries
structure,Lassa entry inh,Cruzain inh noDet,RE007 growth inh,MARV entry inh,SARS PLP yeast,Cruzain inh Det,NS1 inh,2A StopGo
Cc1ccc(CNC(=O)CSc2nnnn2C)cc1,-10%,4%,-11%[3.69 µM],?,1%,2.3%,4%,0%
CCOC(=O)c1ccc(N2CCN(c3cc(C)ccc3C)CC2)c(NC(=O)Nc2ccc(CC)cc2)c1,19%[46.1 µM],-4%,/,/,/,0.1%,/,-18%
CN(C)c1ccc(C(=O)OCC(=O)Nc2ccc(S(N)(=O)=O)cc2)cc1,-11%,-26%,0%,-17%,6%,?,7%,-15%
CCC(CC)C(=O)Nc1nnc(-c2cccs2)s1,5%,-5%,-5%,9%[46.1 µM],-25%,-3.4%,-1%,24%
Cc1ccc(S(=O)(=O)Nc2ccc(NC(=O)Nc3ccc(F)cc3F)cc2)cc1,?,-11%,/,-20%,17%,-10%,14%,32%[activator]
COCCNS(=O)(=O)c1cc(-c2nn3c(C)nnc3c3ccccc23)ccc1C,1%[46.1 µM],2%,/,-27%[46.1 µM],/,1.5%,/,126%[activator]
COc1ccc(C(C(=O)NC2CCCCC2)N(C(=O)c2sc(C)nc2C)c2ccc(OC)cc2)cc1 (stereo not given),?,?,6%,?,-2%,3.3%,-3%,/
Cc1nonc1NC(=O)N1CCCC1,?,-10%,3%,5%,-1%,3.0%,-7%,-3%
Cc1ccccc1-n1cnc2cc(NCc3cccs3)ccc21,?,-1%,-16%,?,?,-8.5%,-17%,37%[activator]
Cc1ccc(CN2CCC(N3CC(C)OC(C)C3)CC2)cc1 (stereo not given),/,/,-5%,/,-1%,/,-4%,-18%
Cc1cccc(NC(=O)c2oc3ccc(S(=O)(=O)N4CCOCC4)cc3c2C)c1C,?,28%,-3%,?,-6%,-1.1%,?,?

Assay outcomes: PubChem BioAssay, National Center for Advancing Translational Sciences (NCATS)
